NPYLR7 ag: activates Aedes aegypti NPYLR7 receptor; HEK293T NPYLR7/Galpha15, GCaMP6s calcium fluorescence; activation, % at 10 µM; actives 0.15% (n = 270,000); in the data active means activation above about 40%;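 further: 0% = vehicle and 100% = reference agonist at the receptor; some compounds past the cut are filed as inactive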
NPYLR7 ag max-min: second read-out of NPYLR7 ag, no call of its own (marks repeat the call); activation, %; measured here: Max-Min RFU normalised activation; some inactives read as strong as hits;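 span of the calcium signal over five minutes; 0% = vehicle and 100% = native peptide agonist; compound fluorescence can raise it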
The depositor's hits bear a star; & = joins results of further samples.

SMILES	NPYLR7 ag	NPYLR7 ag max-min
CN(C)N=Nc1ccccc1C(=O)N1CCC(n2c(=O)[nH]c3ccccc32)CC1	-12	-19
Cc1csc(SCc2c(C(=O)NNC(=O)CC3CCS(=O)(=O)C3)oc3ccccc23)n1 (centres undefined)	2	-2
COc1cc(Cl)ccc1C(=O)NS(=O)(=O)c1cnn(C)c1	1	1
COc1cccc(C(=O)N/N=C(/CC(C)C)c2ccccc2)c1	3	9
Cc1ccc(C)c(OCCN(C)C(=O)c2cc3ncc(CCO)cn3n2)c1	2	-7
COC(=O)c1ccccc1NC(=O)/C(C#N)=C/c1ccc2noc(-c3ccccc3)c2c1	9	7
COC(=O)c1ccc(CN2C(=O)C(Cc3ccccc3)ON=C2c2ncccc2C)o1 (centres undefined)	6	3
CCCNC(=O)N1CCN(c2ccc(OC)cc2OC)C(=O)C1C (centres undefined)	8	4
CCCc1[nH]n(-c2ccc(Cl)cc2)c(=O)c1/C=C1\NC(=O)N(Cc2cccc(C)c2)C1=O	9	6
NC(=O)c1c[nH]c(C(=O)N(Cc2cc(F)ccc2F)C2CCCC2)c1	0	-1
COC(=O)[C@]1(C)C[C@H](C(=O)NCCc2cnccn2)[C@H](c2ccccc2C)N1C	25	21
CCCCc1ncc(-c2c(-c3ccccc3)ncn2Cc2ccncc2)[nH]1	2	-3
O=C(O)[C@@H]1CSC(c2c(F)cc(F)cc2F)N1 (some centres undefined)	1	-3
Cc1ccsc1C(=O)N1CCC1(C)C(=O)NCC1CC1 (centres undefined)	13	11
O=C(NCC1CCCO1)C1CCN(C2CCN(C(=O)C3=CCCC3)CC2)CC1 (centres undefined)	4	6
CN(C)C(=O)c1cnn(C(C)(C)C)c1	1	9
O=C(NC1CC1)c1cc2n(n1)CCCN(C(=O)c1cc(Cl)ccc1O)C2	6	3
O=C(CN(C1CCCCC1)C1CC1)Nc1ccc(Cl)cn1	4&2	4&-1
Cc1ccc(C)c2sc(N3CCN(C(=O)C4CCCCN4S(C)(=O)=O)CC3)nc12 (centres undefined)	1	1
Cc1cc(NC(=O)c2sc3ccccc3c2C)n[nH]1	-7	-8
COc1ccccc1-n1ncc2c(=O)[nH]c(SC)nc21	-5	-5
O=c1[nH]c(CN2CCN(S(=O)(=O)c3ccccc3C(F)(F)F)CC2)nc2ccccc12	6	5
O=C(NCc1csc2c1CCCC2)c1ccc(-n2cnnc2)cc1	0	-1
CC(C)CC(C)NC(=O)c1ccc(-n2nc(-c3cccc(Cl)c3)cc2N)cc1 (centres undefined)	0	-5
CN1CCN(CC(=O)N2N=C(c3cccs3)CC2c2ccccc2O)CC1 (centres undefined)	13	17
O=C(Oc1ccccc1)Oc1ccc2ccc(=O)oc2c1	6	4
CC(=O)Oc1c(-c2ccc(NC(=O)Cc3ccccc3)cc2)c(-c2ccc(F)cc2)nn1-c1ccc(F)cc1	0	7
Cc1oc(-c2ccoc2)nc1CN1CCCCC1CCN1CCCC1=O (centres undefined)	6	10
Cc1cc(C)nc(/C(C#N)=C/c2ccccc2)n1	11	8
CCOC(=O)C1(CCOc2ccccc2)CCNCC1	2	2
COCC(=O)N(Cc1cc(NC(=O)C(C)C)ccc1N(C)C)C(C)c1ccccc1 (centres undefined)	28	24
Cc1ccc(CNC(=O)C2CCN(Cn3c(=O)oc4ccc(Cl)cc43)CC2)cc1F	5	1
COc1ccccc1C(=O)NCC1=CCN(CC(N)=O)CC1	23	20
Cc1ccccc1C1c2ccsc2CCN1CCC(=O)N1CCN(C(=O)c2cccc([N+](=O)[O-])c2)C(C)C1 (centres undefined)	11	-3
COc1ccc(Cl)cc1NS(=O)(=O)c1ccc(C)cc1	0	8
O=C(O)c1nn(Cc2ncc(-c3cccc(Cl)c3)o2)c(=O)c2ccccc12	2	1
O=C(c1cccnc1)N1CCC(n2cnc3ccccc32)CC1	4	2
CNc1ncccc1C(=O)N1CCCC(Nc2ccc(F)c(F)c2)C1 (centres undefined)	9	6
CN(C)c1ccc(NC(=O)c2ccco2)cc1CN(Cc1cccc(F)c1)C(=O)c1ccc(F)cc1	-1	13
COc1ccc(C(=O)COC(=O)c2cc(C)nc3ccccc23)cc1OC	4	2
COc1cccc(-c2nc(C=Nc3ccc(C)cc3C)c(O)o2)c1	-6	-8
O=C(Nc1ccc2c(c1)CN(C(=O)Cc1ccsc1)CC2)c1ccccc1Cl	9&16	1&4
C=CCC(NC(C)=O)C(=O)N1CCCCC1C(=O)OCCc1ccc(OC)c(OC)c1 (centres undefined)	-5	-9
Cc1ccccc1-n1ncc2c(C(C)C)nn(CC(=O)N3CC(C)OC(C)C3)c(=O)c21 (centres undefined)	10	6
C=CCNC(=S)NNC(=O)c1c(C)nc2cc(C)ccn12	-5	-6

Record cards, from the list above. Values in the order: NPYLR7 ag	NPYLR7 ag max-min
C=CCC(NC(C)=O)C(=O)N1CCCCC1C(=O)OCCc1ccc(OC)c(OC)c1 (centres undefined) as listed: -5	-9
O=C(Nc1ccc2c(c1)CN(C(=O)Cc1ccsc1)CC2)c1ccccc1Cl as listed: 9&16	1&4

The listing continues:
SMILES	NPYLR7 ag	NPYLR7 ag max-min
CN1CCN(c2onc(-c3ccc(F)cc3)c2CN(CC2CCCO2)C(=O)Cc2ccccc2)CC1 (centres undefined)	7	6
c1ccc2c(c1)CCN(c1nc(CN3CCOCC3)nc3sc4c(c13)CCCC4)C2	9	4
Fc1ccc(-n2cc(-c3ccnc(NCCCc4ccccn4)n3)cn2)cc1	-2	-4
CS(=O)(=O)Oc1ccc(CN(CC2CCCO2)C(=O)c2ccc(Cl)cc2)cc1 (centres undefined)	12	15
CCCCN(CC(=O)N(Cc1ccccc1)Cc1cccn1Cc1cccc(OC)c1)C(=O)c1ccc(Br)cc1	-4	-2
CN(CC(=O)N1CCN(C(c2ccccc2)c2ccccc2)CC1)c1nc(Cc2ccc(Cl)cc2)ns1	-8	1
CC[n+]1c2ccccc2cc2ccccc21	10	1
Cc1cc(C)n(CCN(C(=O)c2ccc([N+](=O)[O-])o2)c2nc3ccccc3s2)n1	-17	-22
COc1ccc(Cl)cc1Cn1c(C)c(C(=O)NCc2cccc(C)c2)sc1=O	9	5
CC(C)n1c(Sc2nccn2C)nc2c1c(=O)n(C)c(=O)n2C	0	-2
FC(F)(F)C(Cl)Br (centres undefined)	6	5
O=C(COc1ccc(O)cc1)NCCCc1ccccc1	2	0
C/C(CC(Sc1ccc(Cl)cc1)c1ccccc1)=N/NC(N)=S (centres undefined)	-2	-2
O=C(c1cccs1)N(Cc1ccco1)Cc1nccn1Cc1ccccc1F	25	30
CC1CCN(c2cc(Cl)nc(SCc3ccc(C(=O)NCc4ccccn4)cc3)n2)CC1	-1	8
CC(Oc1ccc(F)cc1)c1nc(-c2nonc2N)no1 (centres undefined)	5	3
CC(C)c1nn(C)c(Cl)c1CNCC(=O)N1CCN(C)CC1	10	6
CCc1ccc(Cn2ccc3c(-c4ccc(C#N)cc4)c(OC(=O)N(CC)CC)ccc32)cc1	3	-2
Cc1ccccc1Cn1c(C(=O)N2CCN(C(=O)C(C)Cl)C(C)C2)cc2ccsc21 (centres undefined)	21	24
CN(C)S(=O)(=O)c1ccccc1NC(=O)/C=C/c1cncc(F)c1	4	3
Cc1nc(CC(C)C)cc(C(=O)N2CCC(N3CCC(C(=O)NC4CC4)CC3)CC2)n1	5	1
COc1cccc(C(=O)COc2ccc(F)cc2F)c1	15	10
COc1ccc(-c2cc3ncn(CC(O)COCC4CCCO4)c(=O)c3s2)cc1 (centres undefined)	1	-1
COC(=O)N1CCc2nc3ccccc3c(C)c2C1	-4	-3
COc1ccc(-c2nnc(SCC(=O)N/N=C\c3cccc(OC)c3OC)n2-c2ccccc2)cc1OC	-8	1
O=C(Cc1c(F)cccc1F)N1CCOC(COc2cccc(C(F)(F)F)c2)C1 (centres undefined)	21	13
Cn1c2ccccc2c2c(C(F)(F)F)cc(C(F)(F)F)nc21	-2	-3
CN1CCCCC1(C)C(=O)NCc1ccc(F)cc1 (centres undefined)	-9	-9
O=C(CNC(=O)c1ccccc1F)N=Nc1c(O)n(Cc2ccccc2)c2ccccc12	4	6
CCN(CC)c1ccc(NC(=O)c2ccc(F)c(F)c2)cn1	7	5

Structures shown so far with an aryl thioether with sulfur outside any ring:
SMILES	NPYLR7 ag	NPYLR7 ag max-min
Cc1csc(SCc2c(C(=O)NNC(=O)CC3CCS(=O)(=O)C3)oc3ccccc23)n1 (centres undefined)	2	-2
COc1ccccc1-n1ncc2c(=O)[nH]c(SC)nc21	-5	-5
CC(C)n1c(Sc2nccn2C)nc2c1c(=O)n(C)c(=O)n2C	0	-2
C/C(CC(Sc1ccc(Cl)cc1)c1ccccc1)=N/NC(N)=S (centres undefined)	-2	-2
CC1CCN(c2cc(Cl)nc(SCc3ccc(C(=O)NCc4ccccn4)cc3)n2)CC1	-1	8
COc1ccc(-c2nnc(SCC(=O)N/N=C\c3cccc(OC)c3OC)n2-c2ccccc2)cc1OC	-8	1

The list continues:
SMILES	NPYLR7 ag	NPYLR7 ag max-min
Cc1ccc(N2C(=O)C3CC=CCC3C2=O)cc1C (centres undefined)	28	26
COCCOC(=O)N1CCCCC1c1cc(C(=O)Nc2cccc3c2CCCC3)no1 (centres undefined)	3	0
Cc1ccc(-c2noc(CSc3ncccn3)n2)cc1	-12	-4
Cc1oc(C)c(S(N)(=O)=O)c1C(=O)N(C)C1C2CC3CC(C2)CC1C3 (centres undefined)	2	0
COc1ccc(NC(=O)N(Cc2nc(C(=O)NC3CCN(Cc4ccccc4)CC3)cs2)C(C)C)cc1	-17	-16
Nc1ccn([C@H]2CC[C@@H](CO)O2)c(=O)n1	-3&3&-4	-7&-7&-24
CCOC(=O)C1(Cc2ccccc2F)CCCN(C(=O)c2c(C)nc3ncccn23)C1 (centres undefined)	3	-2
Cc1cccc(-c2cnc(-c3ccncc3)nc2C2CCN(C(=O)CC3=CCCCC3)CC2)c1	15	4
O=C(Nc1c2c(nn1-c1ccc([N+](=O)[O-])cc1)CSC2)C1CCCCC1	19	26
CCc1nc(N(CCC(=O)NCCN2CCOCC2)Cc2ccccc2)c2ccc(Cl)cc2n1	-31	-27
Cc1cc(Sc2cccs2)c(C#N)c(C)n1	-14	-20
CC(NC(=O)c1ccco1)C(=O)N1CC=C(c2ccccc2)CC1 (centres undefined)	10	1
COc1ccc(CNC(=O)c2cccnc2N2CCN(C(=O)CCCOc3ccccc3)CC2)cc1	-4	5
CCN1CC(CN(C)c2cncc(-n3cccn3)n2)Oc2ccccc21 (centres undefined)	-1	-1
O=C(CCNc1nc(-c2ccccc2Cl)nc2ccccc12)NCc1cccc(C(F)(F)F)c1	15	13

5 compounds picked at random from those above, as already listed:
SMILES	NPYLR7 ag	NPYLR7 ag max-min
Cc1cccc(-c2cnc(-c3ccncc3)nc2C2CCN(C(=O)CC3=CCCCC3)CC2)c1	15	4
CCOC(=O)C1(Cc2ccccc2F)CCCN(C(=O)c2c(C)nc3ncccn23)C1 (centres undefined)	3	-2
Cc1ccc(-c2noc(CSc3ncccn3)n2)cc1	-12	-4
Cc1ccc(N2C(=O)C3CC=CCC3C2=O)cc1C (centres undefined)	28	26
COc1ccc(NC(=O)N(Cc2nc(C(=O)NC3CCN(Cc4ccccc4)CC3)cs2)C(C)C)cc1	-17	-16

Additional entries
SMILES	NPYLR7 ag	NPYLR7 ag max-min
Cn1c(-c2ccccc2)cnc1SCC(=O)NCC(C)(C)N1CCOCC1	5	4
CCn1c(=O)c2ccc(Cl)cc2n(C(C)C(=O)NCCN2CCOCC2)c1=O (centres undefined)	6	6
O=C(C1=C(N2CCOCC2)C(C(=O)c2ccccc2)CCC1)c1ccccc1 (centres undefined)	3	2
CC(C)n1ncc(C(C)(O)C(F)(F)F)c1N (centres undefined)	4&3	11&0
O=C(Nc1cccnc1)c1cc(F)c(F)cc1Cl	2	1
O=C(CCC(=O)N1CCc2ccccc2C1)NCCc1ccc(F)cc1	-17	-20
COC(=O)c1ccc(NC(=O)CSc2nc3c(-c4ccccc4)c(C)nn3c(=O)[nH]2)cc1	7	3
Cc1c(CN2CCCC(C(=O)Nc3ccc(-c4ccn[nH]4)cc3)C2)cnn1C (centres undefined)	-6	-6
CCCC(O)CN(Cc1ccc2c(c1)OCO2)Cc1ccc(C)o1 (centres undefined)	-4	5
CCOc1ccccc1Nc1nc(-c2c(C)nc3cc(C)ccn23)cs1	-13	-19
Cc1ccccc1C1=NN2C(=N)/C(=C/c3ccc(F)cc3)C(=O)N=C2S1	0	-1
CCOC(=O)c1ccc2c(c1)nc(SCc1ccc(I)cc1)n2CCc1ccc(OC)cc1	-8	-13
Cc1ccc(-c2c(=O)n(OCc3ccccn3)c3ccccc3[n+]2[O-])cc1	-3	-5
Cn1c(CCC(N)=O)nnc1SCC(=O)N1N=C(c2cccs2)CC1c1ccco1 (centres undefined)	0	3
O=C1CSC2=NC3=C(CCCC3=C3SCCS3)C(c3ccccc3)N12 (centres undefined)	2	0
Cc1c(C#N)c(NC(=O)CCN2CCCCC2)n(Cc2ccco2)c1C	10	4
Cc1nn(C)cc1CN1CCCC(C(=O)c2ccc(-c3ccccc3)cc2)C1 (centres undefined)	0	-1
NC(=O)CC1CCN(C(=O)NCc2ccc3ccccc3c2)CC1	-3	-3
CCCc1cc(-c2nc(CC3CCN(C)CC3)no2)ccn1	-2	-13
COc1ccc(-c2nc3ccccn3c2NC(=O)c2cccc(C(F)(F)F)c2)cc1	-2	6
OC1CN(c2ncnc3ccc(I)cc23)C1	9	6
O=C(NCc1ccco1)c1scc2c1OCCO2	-2	-3
COc1cc(C(=O)Oc2ccccc2C(C)C)cc(OC)c1OC	12	2
CCCOC(=O)CN(C)c1ccc(Cl)nn1	19	15
O=C(NCc1ccc(F)cc1)C(C1CCCC1)N1CCN(C(=O)C2CCC2)CC1 (centres undefined)	7	11
c1ccc(-c2nc(NCCc3ccccn3)c3ccccc3n2)cc1	1	2
Cc1cc(C)nc(Sc2ccc(S(=O)(=O)C(F)(F)F)cc2[N+](=O)[O-])n1	-4	-12
O=C1OC(/C=C\c2cccc([N+](=O)[O-])c2)=NC/1=C/C=C/c1ccccc1	2	2
Cn1cnnc1SCc1csc(-c2ccc(C(F)(F)F)cc2)n1	19	15
Cc1ccc(NC(=O)CSc2nnc(N3CCCC3)n2C2CC2)cc1C	5	1

Compound activity: PubChem BioAssay, Fisher Drug Discovery Resource Center

The list is partial, so the mix of outcomes need not match the whole.
